Mtb MenB inh = M. tuberculosis MenB inhibitors, primary screen, biochemical, absorbance. 1,4-dihydroxy-2-naphthoyl-CoA synthase (Mycobacterium tuberculosis (strain ATCC 25618 / …. MenB enzyme assay, absorbance read-out; some hits fall short of the stated cut. inhibition, %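 (about 12 µg/mL by stock and volumes)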. 100,000 compounds, 0.43% hits. AID 540299, 2011;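 active = mean of two replicates above 30%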;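 note: 0% = no compound and 100% = wells with inactive enzyme; the first replicate is given; strong numbers were not always called active; inactives centre near -10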
Target sequence (P9WNP5 whole entry, looked up): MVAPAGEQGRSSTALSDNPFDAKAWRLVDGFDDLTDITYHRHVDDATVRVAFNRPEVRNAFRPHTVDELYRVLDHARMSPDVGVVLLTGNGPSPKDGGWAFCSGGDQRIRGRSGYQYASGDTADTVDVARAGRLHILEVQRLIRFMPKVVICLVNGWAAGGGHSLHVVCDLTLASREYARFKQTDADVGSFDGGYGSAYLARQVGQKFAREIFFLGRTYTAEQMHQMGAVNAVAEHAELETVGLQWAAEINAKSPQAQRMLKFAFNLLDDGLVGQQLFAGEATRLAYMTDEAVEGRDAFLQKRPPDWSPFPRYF
PV pol inh = poliovirus RdRp elongation inhibitors, primary screen, biochemical, fluorescence polarization, total intensity | AID 588519, 2011 | poliovirus polymerase elongation; hits give low values | % elongation, % (compound at 16.7 µg/mL) | 150,000 compounds, 0.66% hits; in the data active = % elongation below about 90%; note: some results filed as inactive read as strong as hits
Target sequence (P03300 1749-2209 limits assumed): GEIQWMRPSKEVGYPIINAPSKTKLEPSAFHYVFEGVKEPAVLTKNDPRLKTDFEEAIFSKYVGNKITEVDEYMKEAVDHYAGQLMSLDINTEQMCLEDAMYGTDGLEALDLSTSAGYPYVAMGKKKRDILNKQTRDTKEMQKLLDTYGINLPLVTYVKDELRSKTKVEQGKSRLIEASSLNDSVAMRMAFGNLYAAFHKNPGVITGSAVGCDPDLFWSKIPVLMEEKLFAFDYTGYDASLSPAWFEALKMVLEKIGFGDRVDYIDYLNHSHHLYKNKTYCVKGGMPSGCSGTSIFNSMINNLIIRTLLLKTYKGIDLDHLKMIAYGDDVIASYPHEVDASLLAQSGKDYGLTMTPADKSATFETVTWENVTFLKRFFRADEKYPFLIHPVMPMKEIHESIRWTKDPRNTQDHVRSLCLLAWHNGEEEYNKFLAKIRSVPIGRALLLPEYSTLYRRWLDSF
Mtb MbtI inh = MbtI salicylate synthase inhibitors, primary screen, biochemical, fluorescence intensity; P9WFX0; purified MbtI enzyme, fluorescence intensity read-out; inhibition, %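 (about 17 µg/mL by stock and volumes)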; 100,000 compounds, 0.89% hits; AID 493033, 2011;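 active = above 50% in both replicates, above 80% if mildly self-fluorescent; inactive = the rest, strongly fluorescent compounds included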;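 note: 0% = mean of negative and 100% = mean of positive controls; one replicate is shown; some compounds called inactive have numbers as strong as hits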
PV pol inh intensity = further read-out of PV pol inh, marked with its call; % elongation; measured here: total intensity read-out; formula for this scale not given here;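 total fluorescence in place of polarization; lower means less elongation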
Numbers without * were called inactive.

CCN(c1ccc(OC)cc1)S(=O)(=O)c1ccc2c(c1)N(C(C)=O)CCO2 was read as Mtb MenB inh 12, PV pol inh 103, Mtb MbtI inh -16 and PV pol inh intensity 104.
Screening O=C(COC(=O)/C=C/c1ccco1)Nc1ccc(Cl)cc1 returned Mtb MenB inh -4, PV pol inh 100, Mtb MbtI inh 8 and PV pol inh intensity 91.
`CCCCC1CC1C(=O)Nc1ncc2c(n1)CC(C)(C)CC2=O` (configuration not stated) gave Mtb MenB inh 3, PV pol inh 98, Mtb MbtI inh 1 and PV pol inh intensity 102.
Screening Cc1cn2c(=O)c(C(=O)NCCCc3ccccc3)cnc2s1 returned Mtb MenB inh -10, PV pol inh 106, Mtb MbtI inh 12 and PV pol inh intensity 106.
For CCNc1nc(OCCO)nc(N(C)C)n1 the results were Mtb MenB inh 6, PV pol inh 104, Mtb MbtI inh 16 and PV pol inh intensity 99.
`O=c1c2c3c(sc2ncn1-n1cccc1)CCCC3` gave PV pol inh 100, Mtb MbtI inh -11 and PV pol inh intensity 103.
Screening NC(=O)CN1c2cccc3cccc(c23)S1(=O)=O returned Mtb MenB inh -38, PV pol inh 104, Mtb MbtI inh 12 and PV pol inh intensity 101.
`CC1Cc2ccccc2N1C(=O)c1cc(S(=O)(=O)N2CCCC2)cn1C` (configuration not stated) gave Mtb MenB inh -1, PV pol inh 102, Mtb MbtI inh 11 and PV pol inh intensity 98.
For COc1ccc2nc(SCc3nnc(-c4ccccc4)o3)c(C#N)cc2c1 the results were Mtb MenB inh 13, PV pol inh 101, Mtb MbtI inh -5 and PV pol inh intensity 104.
O=C(O)/C=C/c1cccc(Br)c1 was read as PV pol inh 103, Mtb MbtI inh -5 and PV pol inh intensity 107.
CCCC(=O)C1CCN(Cc2ccccc2)CC1 was read as Mtb MenB inh -41, PV pol inh 102, Mtb MbtI inh -6 and PV pol inh intensity 137.
For CC(c1ccccc1)N1C(=O)c2ccccc2C1=O (configuration not stated) the results were Mtb MenB inh 0, PV pol inh 98, Mtb MbtI inh 3 and PV pol inh intensity 103.

Continued, overlapping the part above by 2 compounds.
CCCC(=O)C1CCN(Cc2ccccc2)CC1 was read as Mtb MenB inh -41, PV pol inh 102, Mtb MbtI inh -6 and PV pol inh intensity 137.
For CC(c1ccccc1)N1C(=O)c2ccccc2C1=O (configuration not stated) the results were Mtb MenB inh 0, PV pol inh 98, Mtb MbtI inh 3 and PV pol inh intensity 103.
`Cc1cccc(N2CCN(C(=O)CCNS(=O)(=O)c3ccc4c(c3)oc(=O)n4C)CC2C)c1` (configuration not stated) gave Mtb MenB inh 1, PV pol inh 100, Mtb MbtI inh -2 and PV pol inh intensity 104.
`CC1=C(C(=O)OC2CCCCC2)C(c2ccco2)C2=C(CC(c3ccc(F)cc3)CC2=O)N1` (configuration not stated) gave Mtb MenB inh -4, PV pol inh 100, Mtb MbtI inh 181 and PV pol inh intensity 103.
For COC(=O)C1=C(C)N=C2SC(C#N)=C(N)N2C1c1ccccc1 (configuration not stated) the results were Mtb MenB inh -439, PV pol inh 104, Mtb MbtI inh 9 and PV pol inh intensity 108.
`Cn1c(=O)c2c(nc(NCCN3CCOCC3)n2C)n(C)c1=O` gave Mtb MenB inh 5, PV pol inh 102, Mtb MbtI inh 5 and PV pol inh intensity 102.
Screening CC(C)Cc1nn2c(=O)cc(CSc3nc(-c4ccccc4F)nc4cc(=O)[nH]n34)nc2s1 returned Mtb MenB inh -1, PV pol inh 99, Mtb MbtI inh -10 and PV pol inh intensity 103.
For CC(NS(=O)(=O)c1cccc2nsnc12)C(=O)OCc1csc(-c2ccccc2)n1 (configuration not stated) the results were Mtb MenB inh -26, PV pol inh 97, Mtb MbtI inh -31 and PV pol inh intensity 100.
Screening O=C1OC(Cc2ccccc2Cl)c2cc[nH]c(=O)c21 (configuration not stated) returned Mtb MenB inh 1, PV pol inh 102 and PV pol inh intensity 113.
Screening CC1CCCN(C(=O)COC(=O)C2=COCCO2)C1 (configuration not stated) returned Mtb MenB inh 15, PV pol inh 102, Mtb MbtI inh 5 and PV pol inh intensity 103.
Screening Cn1c(C(=O)N2CCC(C(=O)NCc3ccccc3)CC2)cc2sccc21 returned Mtb MenB inh -12, PV pol inh 102, Mtb MbtI inh -4 and PV pol inh intensity 106.
COc1cc2ncnc(NCCCN3CCOCC3)c2cc1OC was read as Mtb MenB inh 5, PV pol inh 93, Mtb MbtI inh -6 and PV pol inh intensity 93.
COc1ccc(NC(=O)C2CC(c3ccc(OC)cc3)=NO2)cc1 (configuration not stated) was read as Mtb MenB inh -20, PV pol inh 101, Mtb MbtI inh -5 and PV pol inh intensity 103.
CC(NC(=O)c1ccc(C(F)(F)F)cc1)C(c1ccccc1)N1CCOCC1 (configuration not stated) was read as PV pol inh 104, Mtb MbtI inh -18 and PV pol inh intensity 105.

Brought forward from above: 3 compounds, followed by the next part.
COc1cc2ncnc(NCCCN3CCOCC3)c2cc1OC was read as Mtb MenB inh 5, PV pol inh 93, Mtb MbtI inh -6 and PV pol inh intensity 93.
COc1ccc(NC(=O)C2CC(c3ccc(OC)cc3)=NO2)cc1 (configuration not stated) was read as Mtb MenB inh -20, PV pol inh 101, Mtb MbtI inh -5 and PV pol inh intensity 103.
CC(NC(=O)c1ccc(C(F)(F)F)cc1)C(c1ccccc1)N1CCOCC1 (configuration not stated) was read as PV pol inh 104, Mtb MbtI inh -18 and PV pol inh intensity 105.
C1CN(C23CC4CC(CC(C4)C2)C3)CCN1 was read as Mtb MenB inh -11, PV pol inh 103 and PV pol inh intensity 114.
Screening Cn1c(=O)c2cc(C(=O)NC3CCCCCC3)sc2c2ccc(Cl)cc21 returned Mtb MenB inh -12, PV pol inh 103, Mtb MbtI inh -2 and PV pol inh intensity 103.
For CC(NC(=O)CN1CCN(C/C=C/c2ccccc2)CC1)c1ccccc1 (configuration not stated) the results were Mtb MenB inh -4, PV pol inh 101, Mtb MbtI inh -16 and PV pol inh intensity 107.
`Oc1cccc(/C=N/c2c(-c3ccco3)nc3ccccn23)c1` gave Mtb MenB inh -67, PV pol inh 103, Mtb MbtI inh 32 and PV pol inh intensity 102.
`CCCN(CCC)S(=O)(=O)c1ccc2c(c1)oc(=O)n2CC(=O)OCC` gave Mtb MenB inh -6, PV pol inh 104, Mtb MbtI inh -1 and PV pol inh intensity 103.
Screening C(=Nc1ccc(Nc2ccccc2)cc1)c1ccc2ncccc2c1 returned PV pol inh 105, Mtb MbtI inh 1 and PV pol inh intensity 100.
Screening O=c1[nH]c(CCl)nc2scc(-c3ccccc3)c12 returned PV pol inh 100, Mtb MbtI inh 2 and PV pol inh intensity 103.
`O=c1[nH]nc(N2CCOCC2)c(=O)[nH]1` gave Mtb MenB inh 4, PV pol inh 104, Mtb MbtI inh -6 and PV pol inh intensity 97.
Screening CC(=O)Nc1ccc(Nc2cc(C)c(C#N)c3nc4ccccc4n23)cc1 returned Mtb MenB inh -77, PV pol inh 98, Mtb MbtI inh -9 and PV pol inh intensity 105.
Screening O=C(COC(=O)c1ccccc1)NC1CCCC1 returned PV pol inh 102, Mtb MbtI inh -1 and PV pol inh intensity 100.
For COC(=O)CC1(O)C(=O)C=C(c2ccc(C)cc2)N1c1ccccc1OC (configuration not stated) the results were Mtb MenB inh -29, PV pol inh 105 and PV pol inh intensity 111.
`CC1=C(C(=O)N(C)C)C(c2ccc(Cl)cc2)NC(=O)N1` (configuration not stated) gave Mtb MenB inh -5, PV pol inh 100 and PV pol inh intensity 97.

Three compounds picked at random from those above:
`O=c1c2c3c(sc2ncn1-n1cccc1)CCCC3` gave PV pol inh 100, Mtb MbtI inh -11 and PV pol inh intensity 103.
For COc1ccc2nc(SCc3nnc(-c4ccccc4)o3)c(C#N)cc2c1 the results were Mtb MenB inh 13, PV pol inh 101, Mtb MbtI inh -5 and PV pol inh intensity 104.
For CCNc1nc(OCCO)nc(N(C)C)n1 the results were Mtb MenB inh 6, PV pol inh 104, Mtb MbtI inh 16 and PV pol inh intensity 99.

(listing goes on)
Screening Clc1ccc(/C=C/C2=Nc3cccc4cccc(c34)N2)cc1 returned Mtb MenB inh -28, PV pol inh 99, Mtb MbtI inh 2 and PV pol inh intensity 95.
For Cc1cc(C)cc(C(=O)NCC(=O)OCc2c(C)noc2C)c1 the results were Mtb MenB inh -17, PV pol inh 104, Mtb MbtI inh -1 and PV pol inh intensity 103.
CC1CCN(C(=O)COC(=O)Cn2[nH]c(=O)c3ccccc3c2=O)CC1 was read as Mtb MenB inh -29, PV pol inh 98, Mtb MbtI inh -24 and PV pol inh intensity 90.
`O=C(CCC(=O)c1ccc[nH]1)c1ccc(Cl)cc1` gave Mtb MenB inh 5, PV pol inh 107, Mtb MbtI inh 7 and PV pol inh intensity 108.
For COCCNC(=O)C1CCN(c2nnc(-n3cccc3)s2)CC1 the results were Mtb MenB inh -30, PV pol inh 103, Mtb MbtI inh 4 and PV pol inh intensity 103.
O=C(CN(C(=O)c1ccccc1)C1CCCCC1)Nc1nc(-c2ccccc2)cs1 was read as Mtb MenB inh -16, PV pol inh 99 and PV pol inh intensity 104.
For CNC(=O)c1c(N)sc2c1CCCCC2 the results were Mtb MenB inh -31, PV pol inh 102 and PV pol inh intensity 110.
For Cc1ccccc1-c1nsc(SCC(=O)NC2CCCCC2)n1 the results were Mtb MenB inh -16, PV pol inh 99, Mtb MbtI inh -5 and PV pol inh intensity 100.
Screening O=c1c(Cl)c(Nc2ccc(F)cc2)cnn1-c1ccccc1 returned Mtb MenB inh 3, PV pol inh 84*, Mtb MbtI inh 3 and PV pol inh intensity 89*.
For Cc1cccc(S(=O)Cc2ccc(C(=O)NCc3ccccc3)o2)c1 (configuration not stated) the results were Mtb MenB inh -13, PV pol inh 101, Mtb MbtI inh -17 and PV pol inh intensity 101.
Cc1ccc(NC(=O)c2cccs2)cc1 was read as Mtb MenB inh -35, PV pol inh 102, Mtb MbtI inh 13 and PV pol inh intensity 102.
For CCC(C)NS(=O)(=O)c1cc(-c2cc(C)no2)ccc1C(C)C (configuration not stated) the results were Mtb MenB inh -13, PV pol inh 102, Mtb MbtI inh -9 and PV pol inh intensity 105.
`O=c1c2c3c(sc2n(Cc2cccc(Cl)c2)c(=O)n1-c1ccccc1)CCC3` gave Mtb MenB inh -5, PV pol inh 101, Mtb MbtI inh -1 and PV pol inh intensity 102.
For Cc1cccc(N(C)C(=O)c2cc(S(=O)(=O)N3CCc4ccccc43)cn2C)c1 the results were Mtb MenB inh -3, PV pol inh 99, Mtb MbtI inh 3 and PV pol inh intensity 98.
Screening CCN(CC)C(=O)c1sc(NC(=S)Nn2cnnc2)c(C(=O)OC)c1C returned Mtb MenB inh 5, PV pol inh 98, Mtb MbtI inh 55* and PV pol inh intensity 99.
`O=C(O)CCC(=O)Oc1ccccc1` gave Mtb MenB inh 10, PV pol inh 101 and PV pol inh intensity 107.
Screening O=C(NCCc1ccccc1)c1ccc2c(=O)n3nc(Nc4ccccc4)sc3nc2c1 returned Mtb MenB inh -18, PV pol inh 103, Mtb MbtI inh -17 and PV pol inh intensity 100.
O=C(O)c1cncc(C(=O)O)c1 was read as Mtb MenB inh 6, PV pol inh 101 and PV pol inh intensity 90.
CSc1ncccc1C(=O)Nc1ccc(S(C)(=O)=O)cc1 was read as Mtb MenB inh -5, PV pol inh 109, Mtb MbtI inh 4 and PV pol inh intensity 131.
O=P(O)(Cc1ccccc1)Cc1ccccc1 was read as Mtb MenB inh -77, PV pol inh 100, Mtb MbtI inh -9 and PV pol inh intensity 103.
For N#Cc1ccc(NC(=O)COC(=O)/C=C/c2cn(-c3ccccc3)nc2-c2cc3ccccc3o2)cc1 the results were Mtb MenB inh -25, PV pol inh 107, Mtb MbtI inh -11 and PV pol inh intensity 106.
CCOC(=O)c1c(C)nn(-c2ncccc2NC(=O)c2ccccc2C(=O)O)c1C was read as Mtb MenB inh -15, PV pol inh 104, Mtb MbtI inh -11 and PV pol inh intensity 107.
Screening Cc1cc(O)cc(=O)n1Cc1ccccc1 returned Mtb MenB inh -158, PV pol inh 106, Mtb MbtI inh 38 and PV pol inh intensity 109.
O=C1CCCC2=C1C(c1ccccn1)Nc1ccc3ncccc3c12 (configuration not stated) was read as Mtb MenB inh -6, PV pol inh 102, Mtb MbtI inh -2 and PV pol inh intensity 102.
For CC(=O)N1c2ccc(S(=O)(=O)N3CC(=O)N(CCc4ccccc4)C(=O)C3)cc2CC1C (configuration not stated) the results were Mtb MenB inh -9, PV pol inh 100, Mtb MbtI inh -3 and PV pol inh intensity 100.
Screening Clc1ccc(C2=NN=C(N3CCCC3)SC2)cc1 returned Mtb MenB inh -19, PV pol inh 109 and PV pol inh intensity 110.
CCCCN(C(=O)C1CCC1)c1nnc(-c2ccncc2)s1 was read as Mtb MenB inh -62, PV pol inh 101, Mtb MbtI inh 90 and PV pol inh intensity 108.
For CCn1nc(C(=O)Nc2ccc(OC)cc2)c2ccccc2c1=O the results were Mtb MenB inh -23, PV pol inh 95, Mtb MbtI inh 1 and PV pol inh intensity 100.
Screening COc1ccc(S(=O)(=O)NCCC23CC4CC(CC(C4)C2)C3)cc1 returned Mtb MenB inh -7, PV pol inh 105 and PV pol inh intensity 104.
